Screens deposited in PubChem by Broad Institute.
AF4-AF9 inh = inhibitors of human MLL-AF4/AF9 interaction; P42568; AlphaScreen, biotin-AF4 peptide binding to FLAG-AF9; inhibition, % at 10 µM; actives 0.47% (n = 350,000);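 active means every replicate reaching a set inhibition limit, whatever the replicate mean, cut at about 25% in these data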;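 further: 0% = plate neutral control median and 100% = total signal loss; the record names both 10 and 1 µM as test concentration; the first replicate is given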
Target sequence (P42568 whole entry, looked up): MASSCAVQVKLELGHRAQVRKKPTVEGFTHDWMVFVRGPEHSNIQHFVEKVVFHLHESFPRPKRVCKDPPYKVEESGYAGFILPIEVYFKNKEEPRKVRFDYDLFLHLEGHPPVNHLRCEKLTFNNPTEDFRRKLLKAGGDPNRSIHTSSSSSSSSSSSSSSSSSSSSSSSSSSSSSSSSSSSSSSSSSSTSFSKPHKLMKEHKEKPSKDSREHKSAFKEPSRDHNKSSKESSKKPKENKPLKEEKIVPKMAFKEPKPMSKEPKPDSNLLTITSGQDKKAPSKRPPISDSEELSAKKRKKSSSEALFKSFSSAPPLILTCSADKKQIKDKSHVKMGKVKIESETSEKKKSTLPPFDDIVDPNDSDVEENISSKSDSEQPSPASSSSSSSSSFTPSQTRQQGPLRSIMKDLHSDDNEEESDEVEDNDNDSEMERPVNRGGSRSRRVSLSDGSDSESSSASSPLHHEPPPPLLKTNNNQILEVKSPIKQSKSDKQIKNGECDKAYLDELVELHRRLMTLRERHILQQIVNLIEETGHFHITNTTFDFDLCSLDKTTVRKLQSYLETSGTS
FGF22 binding = binders of recombinant human FGF22 by thermal shift; actives 1.5% (n = 340,000); SYPRO orange fluorescence; percent of sucrose octasulfate shift, DMSO zero; calls only at 9.99 µM;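 active means melting point raised past a set limit in the mean and every replicate; three in four hits are not shown here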
Target sequence (Q9HCT0 whole entry, looked up): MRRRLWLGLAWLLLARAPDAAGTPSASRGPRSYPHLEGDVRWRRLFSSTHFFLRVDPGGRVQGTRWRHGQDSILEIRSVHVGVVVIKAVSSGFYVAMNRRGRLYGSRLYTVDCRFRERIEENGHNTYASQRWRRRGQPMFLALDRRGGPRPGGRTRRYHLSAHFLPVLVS
Active calls of the source: *; i = inactive; + = active, no number; & = joins results of further samples.

No.	FGF22 binding	AF4-AF9 inh	SMILES
1	i	-2.3	COc1ccc(S(=O)(=O)Nc2ccc3c(c2)C(=O)N([C@H](C)CO)C[C@H](C)[C@@H](CN(C)S(=O)(=O)c2cccs2)OCCCC[C@H](C)O3)cc1
2	i	6.7	CC(C)CC#Cc1ccc2c(c1)O[C@H](CN(C)C)[C@@H](C)CN([C@@H](C)CO)S2(=O)=O
3	i	-0.4	CO[C@@H]1CN(C)C(=O)c2ccc(NC(=O)C3CCCC3)cc2OC[C@@H](C)N(CCC(F)(F)F)C[C@@H]1C
4	i	-1.4	O=C(Nc1ccc(F)cc1)N1CCCCN2[C@H](C1)[C@H](c1ccc(C#Cc3ccccc3)cc1)[C@@H]2CO
5	i	-2.9	CO[C@@H]1CN(C)C(=O)c2cc(NS(=O)(=O)c3ccccc3F)ccc2OC[C@H](C)NC[C@H]1C
6	+	2.2	O=C(c1ccc2c(c1)OCO2)N1CC(=O)N2[C@H](C1)[C@H](c1ccc(C#CCC3CCCC3)cc1)[C@@H]2CO
7	i	-2.9	COCC#Cc1ccc2c(c1)O[C@@H](CN(C)CC1CCOCC1)[C@H](C)CN([C@@H](C)CO)S2(=O)=O
8	i	-0.8	C[C@H](CO)N1C[C@H](C)[C@@H](CN(C)C(=O)C2CCCCC2)Oc2ncc(-c3cccc(F)c3)cc2C1=O
9	i	-1.9	O=C(C[C@@H]1CC[C@H](NS(=O)(=O)c2ccc(F)cc2)[C@H](CO)O1)NC1CCCCC1
10	i	-1.8	CCCNC(=O)C[C@H]1CC[C@@H]2[C@H](COC[C@H](O)CN2C(=O)Nc2cccc(Cl)c2)O1
11	i	-1.8	CCC(=O)N(C)C[C@H]1[C@H](c2ccc(-c3ccccc3F)cc2)[C@@H](CO)N1C(C)=O
12	i	-1.7	COCC(=O)N1C[C@H](C)[C@H](OC)CN(C)C(=O)c2ccc(NC(=O)NC(C)C)cc2OC[C@H]1C

No.	FGF22 binding	AF4-AF9 inh	SMILES
13	i	-2.2	CN1[C@@H]2c3ccc(-c4ccc(F)cc4)c(=O)n3C[C@H]1[C@H](CO)[C@H]2C(=O)Nc1nccs1
14	i	1.2	C[C@H]1CN([C@@H](C)CO)C(=O)CCCn2nncc2CO[C@H]1CN(C)Cc1ccc(C(=O)O)cc1
15	i	1.3	Cc1ccc(S(=O)(=O)Nc2cccc3c2O[C@@H](CN(C)CC2CCCCC2)[C@@H](C)CN([C@@H](C)CO)C3=O)cc1
16	i	-0.1	C[C@@H]1CN([C@H](C)CO)C(=O)Cc2cc(NC(=O)c3ccncc3)ccc2O[C@@H]1CN(C)S(=O)(=O)c1ccc(F)cc1
17	i	2.6	O=C(CN1CCOCC1)N1CC2(C1)[C@H](c1ccccc1)[C@H](CO)N2Cc1ccc(F)cc1
18	i	-1.2	N#Cc1cccc(-c2ccc3c(c2)[C@H]2[C@H](CCN2C(=O)c2ccc4c(c2)OCO4)[C@@H](CO)N3)c1
19	i	9.6	C[C@@H]1CN([C@@H](C)CO)C(=O)c2cccc(N(C)C)c2O[C@@H]1CN(C)Cc1ccc(Oc2ccccc2)cc1
20	i	-2.1	C[C@H](CO)N1C[C@H](C)[C@H](CN(C)Cc2ccccc2)OCCCC[C@H](C)Oc2ccc(NS(=O)(=O)c3cn(C)cn3)cc2C1=O
21	i	-0.8	Cc1ccc(S(=O)(=O)Nc2ccc3c(c2)C(=O)N([C@@H](C)CO)C[C@@H](C)[C@H](CN(C)Cc2ccccc2)O3)cc1
22	i	-0.8	Cc1ccc(S(=O)(=O)N[C@@H]2CC[C@H](CCNC(=O)c3ccccc3F)O[C@H]2CO)cc1
23	i	-1.6	CO[C@@H]1CN(C)C(=O)c2cc(NC(=O)c3cnccn3)ccc2OC[C@@H](C)N(C(=O)c2cnccn2)C[C@H]1C
24	i	21	CN(C)c1ccc2c(c1)[C@H]1C[C@@H](CC(=O)NCc3ccc(Oc4ccccc4)cc3)O[C@H](CO)[C@H]1O2

Ordered by count of non-hydrogen atoms (ascending): 4 of the compounds above
No.	FGF22 binding	AF4-AF9 inh	SMILES
22	i	-0.8	Cc1ccc(S(=O)(=O)N[C@@H]2CC[C@H](CCNC(=O)c3ccccc3F)O[C@H]2CO)cc1
17	i	2.6	O=C(CN1CCOCC1)N1CC2(C1)[C@H](c1ccccc1)[C@H](CO)N2Cc1ccc(F)cc1
21	i	-0.8	Cc1ccc(S(=O)(=O)Nc2ccc3c(c2)C(=O)N([C@@H](C)CO)C[C@@H](C)[C@H](CN(C)Cc2ccccc2)O3)cc1
20	i	-2.1	C[C@H](CO)N1C[C@H](C)[C@H](CN(C)Cc2ccccc2)OCCCC[C@H](C)Oc2ccc(NS(=O)(=O)c3cn(C)cn3)cc2C1=O

(cont.)
No.	FGF22 binding	AF4-AF9 inh	SMILES
25	i	0.5	CO[C@H]1CN(C)C(=O)c2cccc(C#N)c2OCC[C@H]2CC[C@H](OC)[C@@H](CN(C)C(=O)[C@H]1C)O2
26	i	2.9	C[C@H]1CN([C@@H](C)CO)C(=O)c2cccc(NC(=O)Nc3cccc4ccccc34)c2O[C@H]1CN(C)Cc1ccc(C(F)(F)F)cc1
27	i	-3.3	CN(C)CC#Cc1ccc([C@@H]2[C@H](CO)N3CCCCN(C(=O)C4CC4)C[C@@H]23)cc1
28	i	2.4	Cc1noc(C)c1S(=O)(=O)Nc1ccc2c(c1)C(=O)N([C@@H](C)CO)C[C@H](C)[C@@H](CN(C)C(=O)Nc1ccc(C(F)(F)F)cc1)OCCCC[C@@H](C)O2
29	i	3.1	COc1ccc2c3c([nH]c2c1)[C@H](CO)N(C(=O)c1ccc(F)cc1)CC31CN(C)C1
30	i	1.6	CN1[C@@H]2Cn3c(ccc(-c4ccccc4)c3=O)[C@H]1[C@@H](C(=O)Nc1nccs1)[C@@H]2CO
31	i	-0.2	Cc1cccc(S(=O)(=O)N[C@H]2CC[C@@H](CCNS(=O)(=O)c3ccccc3F)O[C@@H]2CO)c1
32	i	0.1	CO[C@H]1CN(C)C(=O)c2ccc(NS(=O)(=O)c3ccc(Oc4ccccc4)cc3)cc2OC[C@@H](C)NC[C@H]1C
33	i	1.7&-0.2	C[C@H](CO)N1C[C@H](C)[C@@H](CN(C)Cc2ccc(C(=O)Nc3ccccc3N)cc2)Oc2ccc(NC(=O)Cn3cnnn3)cc2C1=O
34	i	0.1	C[C@H]1CN([C@@H](C)CO)C(=O)Cc2cc(NC(=O)Nc3ccccc3)ccc2O[C@@H]1CN(C)C(=O)NC1CCCCC1
35	i	1.4	COc1ccc2c3c(n(C)c2c1)[C@H](CO)N(C(=O)CN(C)C)CC31CCN(Cc2nccs2)CC1
36	i	1.8	CCC(=O)N1CC2(C1)[C@@H](c1ccccc1)[C@@H](CO)N2C(=O)c1ccccc1

No.	FGF22 binding	AF4-AF9 inh	SMILES
37	i	0.2	CN(C)C(=O)c1cccc(-c2ccc3c(c2)[C@H]2[C@H](CCN2C(=O)C2CCOCC2)[C@@H](CO)N3)c1
38	i	0.7	C[C@@H](NC(=O)C[C@H]1CC[C@H](NC(=O)c2cccnc2)[C@H](CO)O1)c1ccccc1
39	i	2.5	COc1ccc(S(=O)(=O)N(C)C[C@@H]2Oc3c(NC(=O)NC4CCCCC4)cccc3C(=O)N([C@@H](C)CO)C[C@@H]2C)cc1
40	i	0.2	C[C@@H]1CN([C@H](C)CO)C(=O)c2cc(NC(=O)C3CCCCC3)ccc2O[C@@H]1CN(C)Cc1ccc(-c2ccccc2)cc1
41	i	3.4	Cc1ccccc1S(=O)(=O)N(C)C[C@H]1OCc2ccccc2-c2ccccc2C(=O)N([C@H](C)CO)C[C@H]1C
42	i	1.5	CO[C@@H]1CN(C)C(=O)c2ccc(NS(=O)(=O)c3cccc(F)c3)cc2OC[C@H](C)N(C(=O)Cc2cccnc2)C[C@H]1C
43	i	-0.4	CCS(=O)(=O)Nc1ccc2c(c1)C(=O)N(C)[C@@H]1CC[C@@H](CC(=O)NCCOC)O[C@@H]1CO2
44	i	2.4	CO[C@H]1CN(C)C(=O)c2cc(NS(C)(=O)=O)ccc2OC[C@H](C)N(C(=O)C2CCOCC2)C[C@H]1C
45	i	8.2	C[C@@H]1CN([C@@H](C)CO)C(=O)c2cc(NC(=O)Nc3ccc4c(c3)OCO4)ccc2O[C@H]1CN(C)Cc1ccccc1
46	i	-2.8	C[C@H](O)C#Cc1ccc([C@@H]2[C@H]3CN(C(=O)c4cccc(F)c4)CCCCN3[C@H]2CO)cc1
47	i	-3.5	C[C@@H]1CCCCO[C@@H](CN(C)C(=O)CCC(F)(F)F)[C@H](C)CN([C@@H](C)CO)C(=O)c2cc(NS(=O)(=O)c3ccccc3)ccc2O1
48	i	0.5	COc1cccc(S(=O)(=O)N2CCCCN3[C@@H](CO)[C@@H](c4ccc(-c5cncnc5)cc4)[C@@H]3C2)c1

Results in sequence from above:
Entries 38 to 46 in AF4-AF9 inh, in turn: 0.7, 2.5, 0.2, 3.4, 1.5, -0.4, 2.4, 8.2, -2.8
Entries 38 to 46 in FGF22 binding, in turn: i, i, i, i, i, i, i, i, i

Further entries:
No.	FGF22 binding	AF4-AF9 inh	SMILES
49	i	0.4	CO[C@@H]1CN(C)C(=O)c2cc(NC(=O)C3CC3)ccc2OC[C@H](C)N(Cc2cccnc2)C[C@@H]1C
50	i	-1.6	C[C@@H]1CN([C@H](C)CO)C(=O)c2cc(C#C[C@@H](C)O)cnc2O[C@@H]1CN(C)C(=O)Cc1ccncc1
51	i	-0.7	O=C(C[C@H]1CC[C@H](NS(=O)(=O)c2ccccc2)[C@@H](CO)O1)N1CCc2ccccc2C1
52	i	-2.2	CC(C)NC(=O)N(C)C[C@H]1Oc2ccc(NC(=O)C3CC3)cc2CC(=O)N([C@@H](C)CO)C[C@H]1C
53	i	-6.7	CC(C)C#Cc1ccc2c(c1)O[C@H](CN(C)C(=O)NC(C)C)[C@H](C)CN([C@H](C)CO)S2(=O)=O
54	i	-2.4	CO[C@H]1CN(C)C(=O)c2ccc(NC(=O)C3CCC3)cc2OC[C@@H](C)NC[C@@H]1C
55	i	-3.0	CN(C)C(=O)C[C@H]1CC[C@@H](NC(=O)NC2CCCCC2)[C@@H](CO)O1
56	i	3.1	C[C@H](CO)N1C[C@H](C)[C@@H](CN(C)Cc2ccccc2)OCCCC[C@H](C)Oc2ccc(NC(=O)Nc3ccc(F)cc3)cc2C1=O
57	i	-1.5	O=C(C[C@@H]1CC[C@@H](NC(=O)c2ccc3c(c2)OCO3)[C@@H](CO)O1)NCc1ccc(Cl)cc1
58	i	-1.1	CCC(=O)Nc1ccc2c(c1)OC[C@H](C)N(C(=O)c1ccccn1)C[C@@H](C)[C@H](OC)CN(C)C2=O
59	i	2.1	CC(C)(O)C#Cc1cccc(-c2nc(C(=O)O)cc3c2[C@H](CCO)N(S(=O)C(C)(C)C)C3)c1 (stereo not given in full)
60	i	2.6	Cc1noc(C)c1NC(=O)Nc1ccc2c(c1)CC(=O)N([C@@H](C)CO)C[C@H](C)[C@H](CN(C)Cc1ccc(Cl)c(Cl)c1)O2

No.	FGF22 binding	AF4-AF9 inh	SMILES
61	i	-0.6	O=C(c1ccccn1)N1CC[C@@H]2[C@H]1c1cc(-c3ccccc3F)ccc1N[C@@H]2CO
62	i	0.8	CO[C@H]1CN(C)C(=O)c2cc(NC(=O)CC(F)(F)F)ccc2OC[C@H](C)N(C(=O)C2CCOCC2)C[C@H]1C
63	i	-0.5	C[C@H]1CN([C@@H](C)CO)C(=O)c2cc(C#CCN(C)C)cnc2O[C@H]1CN(C)C(=O)NC1CCCCC1
64	i	-1.0	C[C@@H]1CN([C@H](C)CO)C(=O)c2cc(C#CCN(C)C)cnc2O[C@@H]1CN(C)Cc1cccc(C(=O)O)c1
65	i	-0.8	COCCNC(=O)C[C@H]1CC[C@@H](NS(=O)(=O)c2ccc(C)cc2)[C@H](CO)O1
66	i	-0.1	C[C@H](CO)N1C[C@H](C)[C@H](CN(C)C(=O)C2CCCCC2)OCCCC[C@H](C)Oc2ccc(NC(=O)C3CCCCC3)cc2C1=O
67	i	-7.7	CCC(=O)N1CCCCN2[C@H](C1)[C@@H](c1ccc(-c3cccnc3)cc1)[C@@H]2CO
68	i	-1.5	COc1cccc(S(=O)(=O)N[C@H]2CC[C@@H](CCn3cc(-c4ccccn4)nn3)O[C@H]2CO)c1
69	i	-1.3	CN(C)CCCNC(=O)C[C@H]1CC[C@@H]2[C@H](COc3ccc(NS(C)(=O)=O)cc3C(=O)N2C)O1
70	i	1.3	C[C@@H](NC(=O)C[C@H]1C=C[C@H](NC(=O)Nc2ccc3c(c2)OCO3)[C@@H](CO)O1)c1ccccc1
71	i	0.4	C[C@@H]1CN([C@H](C)CO)C(=O)c2cccc(NC(=O)C3CCOCC3)c2O[C@H]1CN(C)Cc1ccc2c(c1)OCO2
72	i	2.7	COc1cccc(NC(=O)N2CC(=O)N3[C@H](CO)[C@@H](c4ccc(C#CCC5CCCC5)cc4)[C@@H]3C2)c1

No.	FGF22 binding	AF4-AF9 inh	SMILES
73	i	6.7	COc1ccc(NC(=O)N(C)C[C@@H]2Oc3ncc(-c4cc5ccccc5o4)cc3C(=O)N([C@H](C)CO)C[C@@H]2C)cc1
74	i	-0.8	Cn1cnc(S(=O)(=O)N2C[C@H](O)COC[C@H]3O[C@H](CC(=O)NC4CCCC4)CC[C@@H]32)c1
75	i	-0.7	CC(=O)N(C)C[C@@H]1Oc2cc(-c3ccccc3)ccc2S(=O)(=O)N([C@@H](C)CO)C[C@H]1C
76	i	0.4	C[C@@H]1CN([C@@H](C)CO)S(=O)(=O)c2ccc(C#CC3CC3)cc2O[C@@H]1CN(C)C(=O)c1cnccn1
77	i	0.4	CC(C)NC(=O)N1[C@H](C#N)[C@H](c2ccc(-c3ccc(F)cc3)cc2)[C@H]1CO

Single records, from the list above. Values in the order: FGF22 binding | AF4-AF9 inh
`C[C@@H]1CN([C@@H](C)CO)S(=O)(=O)c2ccc(C#CC3CC3)cc2O[C@@H]1CN(C)C(=O)c1cnccn1` as listed: i | 0.4
`Cn1cnc(S(=O)(=O)N2C[C@H](O)COC[C@H]3O[C@H](CC(=O)NC4CCCC4)CC[C@@H]32)c1` as listed: i | -0.8

This is a subset; rates above refer to the full screens.
